2A StopGo = FMDV 2A StopGo reporter, luciferase signal. human cells with a luciferase reporter of 2A StopGo recoding; control for the full effect not named in the record. hit rate 1.2% among 410,000. Potency, µM (doses to about 57.9 µM), for inactives: top-dose signal change, negative = less light. AID 1159524; active = well fitted falling curve with a large enough effect; inconclusive = small, poorly fitted or top-dose-only effect; inactive = no such curve, though single readings can be large or run the other way; tested in HEK293T cells; note: nearly all actives have a fitted effect of over 45% in size; luciferase light after 4 h
RE007 growth inh = less growth of the S. pombe RE007 Vpr strain. hit rate 0.21% among 360,000. S. pombe RE007 Vpr strain, BacTiter-Glo ATP luminescence, 24 h; control for the full effect not named in the record. Potency, µM (doses to about 92.2 µM), without a hit: top-dose activity change, negative = less growth. AID 651644; active = well fitted falling curve with a large enough effect; inconclusive = small, poorly fitted or top-dose-only effect; inactive = no such curve, though single readings can be large or run the other way;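 note: nearly all actives have a fitted effect of over 50% in size; the assay follows cell death caused by Vpr and the record does not say whether a fall means rescue or toxicity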
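Fission yeast strain RE007, carrying one chromosomally integrated HIV-1 vpr copy, was seeded at OD 0.01 in PMG+AL medium with 23 nL pinned compound. After 24 h at 30 °C and 99% humidity, viability was read by BacTiter-Glo luminescence.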
* = called active by the depositor; ? = inconclusive; [ ] = another dose, or the depositor's remark. % is set by controls: 0 for no effect and ±100 for the full control effect; potency is the fitted concentration of half-maximal effect. These rows are one share of the data (hit frequency here may not be typical).

| item | compound | RE007 growth inh | 2A StopGo |
| --- | --- | --- | --- |
| 1 | CCOC1=C2[C@H](c3cccc(Cl)c3)N(S(=O)(=O)c3ccc(C)cc3)C[C@H]2n2c(=O)n(-c3ccccc3)c(=O)n2C1 | 6.0% | 65.7% |
| 2 | COCCCn1cc(CN2CC(N3CCN(Cc4cccc(C)c4)CC3)CS2(=O)=O)nn1 (stereo not drawn) | -5.4% | -16.1% |
| 3 | COc1cccc(CCNC(=O)c2cc(COc3cccc(OC)c3)on2)c1 | -7.8% | 24.7% |
| 4 | C=CCN(c1ccccc1OC)S(=O)(=O)c1ccc(Cl)c(C(=O)NCc2ccco2)c1 | -0.1% | 0.0% |
| 5 | COc1ccc2nc(N(CCN(C)C)C(=O)c3ccc4ncsc4c3)sc2c1 | -15.3% | 30.4%[activator] |
| 6 | O=C(NCc1ccccc1)C1=C[C@@H](c2ccc3c(c2)OCO3)C[C@@H](OCc2ccc(CO)cc2)O1 | -11.1% | 6.5% |
| 7 | CN1CCCC(C)(C(=O)Nc2ccc3scnc3c2)C1 (stereo not drawn) | -7.8% | -10.3% |
| 8 | COCCCNC(=O)[C@H](Cc1ccccc1)NC(=O)CC[C@H]1O[C@@H](n2ccc(=O)[nH]c2=O)[C@H](O)[C@@H]1O | 7.8% | -9.9% |
| 9 | CCCCC[C@H](C)N1C[C@@H](COCc2ccccc2)Oc2cc(N3CCC[C@H]3CO)ccc2S1(=O)=O | 20.8% | 6.1% |
| 10 | c1ccc2c(C3OCC4(CCCCC4)CO3)cccc2c1 | -26.6% | 43.6%[activator] |
| 11 | CCCCN(C(=O)C1CCN(C(=O)c2ccccc2C)CC1)c1c(N)n(CC(C)C)c(=O)[nH]c1=O | 8.9% | ? |
| 12 | CCCS(=O)(=O)NC(=O)C1(C)CCN(C(=O)c2cc(OC)c(OC)c(OC)c2)C1 (stereo not drawn) | 3.6% | -8.7% |
| 13 | Cc1ccc(CN2C(=O)CSCC2(C)C(=O)NC(C)C)cc1 (stereo not drawn) | -2.9% | -8.1% |
| 14 | O=C(c1cccc(-c2cncc3nccn23)c1)N1CCOCC1 | -11.2% | -20.1% |
| 15 | O=C(/C=C/[C@H]1O[C@@H](n2cnc3c(NC(=O)c4ccccc4)ncnc32)[C@H](O)[C@@H]1O)NCCCN1CCCC1=O | 10.6% | -16.3% |
| 16 | OC(Cc1ccccc1Br)c1ncc(-c2ccc(Cl)cc2)[nH]1 (stereo not drawn) | ? | 49.7%[activator] |
| 17 | S=c1[nH]nc2ccc3ccccc3n12 | -10.2% | -1.5% |
| 18 | Cc1cccc(C)c1-n1nnnc1C1(C)CCC(=O)N1CCc1ccccc1F (stereo not drawn) | -7.3% | -10.6% |
| 19 | Cc1cnc(C=O)c2cccc([N+](=O)[O-])c12 | 4.8% | 0.0% |
| 20 | Cc1ccc(CNC(=O)Nc2nnc([C@H]3C[C@H](O)[C@@H](CO)O3)s2)cc1 | 1.5% | -12.9% |
| 21 | CC1(C)CC(=O)C2=C(C1)OC1=C(C(=O)CC(C)(C)C1)C2c1ccccc1Cl | -11.6% | ? |
| 22 | O=C(O)c1cc(NS(=O)(=O)c2ccc(F)cc2)cc(NS(=O)(=O)c2ccc(F)cc2)c1 | -14.8% | 0.1% |
| 23 | CN(C)CCNc1nc(Oc2cccc(F)c2)c2sccc2n1 | 0.9%[18.4 µM] | -9.6% |
| 24 | CO[C@@H]1CN(C)C(=O)c2ccc(NC(C)=O)cc2OC[C@@H](C)N(C(=O)NC2CCCCC2)C[C@H]1C | 5.5% | -14.2% |
| 25 | CC(C)(C)NC(=O)C(c1ccccc1F)n1c(=O)c(-c2ccco2)nc2ccccc21 (stereo not drawn) | -8.5% | -7.9% |
| 26 | CC(=O)c1ccc(OC2(C)CCN(Cc3ccc(OC(F)(F)F)cc3)C2)cc1 (stereo not drawn) | -6.9% | -25.4% |
| 27 | O=C(Nc1c(-c2ccc3c(c2)OCO3)[nH][nH]c1=O)c1cnccn1 | 3.0% | 0.2% |
| 28 | COc1cccc(C(C)(O)c2nc(-c3cccs3)cs2)c1 (stereo not drawn) | 31.0% | -11.5% |
| 29 | C[C@H](CO)N1C[C@H](C)[C@@H](CN(C)S(=O)(=O)c2ccccc2)OCc2cn(nn2)CCCC1=O | -18.2% | -22.1% |
| 30 | CO[C@H]1CN(C)C(=O)c2ccc(NC(=O)C3CCC3)cc2OC[C@H](C)N(Cc2ccccn2)C[C@@H]1C | -11.8% | -9.3% |
| 31 | CC(C)COC(=O)N(C)C[C@H]1OCc2cn(nn2)CCCC(=O)N([C@H](C)CO)C[C@@H]1C | 9.3% | -7.5% |
| 32 | COc1ccccc1-c1cc(NC(C)=O)c2ncc(-c3ccc(F)cc3)n2c1 | 2.1%[18.4 µM] | ? |
| 33 | COc1ccc(C(C(=O)Nc2c(C)cccc2C)n2c(=O)c(-c3ccccc3)nc3ccccc32)cc1 (stereo not drawn) | 3.1% | -8.4% |
| 34 | CCOC(=O)[C@]12CCCC=C1N(CCc1ccc(OC)c(OC)c1)C(=O)[C@H](CC(=O)N1CCSCC1)C2 | -20.5% | -22.8% |
| 35 | O=c1[nH]nc(-c2ccccc2)cc1-c1ccccc1 | 7.2% | -6.3% |
| 36 | Cc1cccc(-c2ccc([N+](=O)[O-])cc2CN2CCN(c3ncc(Cc4ccccc4)cn3)CC2)c1 | -31.6% | -18.1% |
| 37 | COc1ccc(C(C)(O)c2nc(-c3ccc(Cl)cc3)cs2)cc1 (stereo not drawn) | ? | -16.1% |
| 38 | Cc1cc(F)ccc1C(O)c1ncc(-c2cccc3ccccc23)[nH]1 (stereo not drawn) | -16.1%[18.4 µM] | 11.0% |
| 39 | Cn1c(SCC(=O)NC2CCCCC2)nnc1C(F)(F)F | 2.6% | -11.7% |
| 40 | CC(C)(C)OC(=O)NCCc1onc(-c2ccccc2F)c1C(=O)O | 16.2% | -5.2% |
| 41 | Cc1c(-c2ccc(OCCN3CCCCC3)cc2)c(=O)oc2ccc3ccccc3c12 | -1.7% | -2.5% |
| 42 | COc1ccc(S(=O)(=O)N2CCCOC2CNC(=O)C(=O)NCc2ccccc2C)cc1 (stereo not drawn) | 10.1% | -15.2% |
| 43 | Cc1ccc2c(=O)n3c(nc2c1)C(Cc1ccccc1)NC(=O)c1cc2ccccc2cc1-3 (stereo not drawn) | -23.1% | -27.5% |
| 44 | CC(O)(c1cccc(F)c1)c1nc(-c2ccc(S(C)(=O)=O)cc2)cs1 (stereo not drawn) | -23.7%[18.4 µM] | ? |
| 45 | O=C(NC1CCCCC1)N1Cc2cc(-c3ccccc3)ccc2-n2nncc2C1 | 2.7% | -1.4% |
| 46 | CC(=O)c1cccc(-c2cnc3c(NC=O)cc(-c4ccccc4Oc4ccccc4)cn23)c1 | 3.0% | ? |
| 47 | Cc1cc(C(O)c2ncc(-c3ccccc3Cl)[nH]2)ccc1F (stereo not drawn) | -22.1% | 85.0%[activator] |
| 48 | O=C(Cc1cccc(NC(=O)C2CCCN(C(=O)CCc3ccccc3)C2)c1)Nc1cccc(C(=O)N2CCOCC2)c1 (stereo not drawn) | -2.1% | -15.2% |
| 49 | CC(C)[C@H](NC(=O)c1ccccc1F)C(=O)Nc1cccc(S(=O)(=O)N2CCOCC2)c1 | -2.2% | 0.0% |
| 50 | FC(F)(F)c1cc(CO[C@@H]2CCCN[C@@H]2c2ccccc2)cc(C(F)(F)F)c1 | -7.5% | ? |

New compounds follow
| item | compound | RE007 growth inh | 2A StopGo |
| --- | --- | --- | --- |
| 51 | O=[N+]([O-])c1ccc2c(c1)CO[C@@]21O[C@H](CCO)C[C@H](O)[C@H]1O | 14.0% | 0.0% |
| 52 | O=C(NCc1ccccc1)c1ccc([N+](=O)[O-])cc1 | -5.0%[18.4 µM] | -15.3% |
| 53 | CC1(C(=O)NS(=O)(=O)c2ccc(Br)cc2)CCN1C(=O)Cc1ccsc1 (stereo not drawn) | -8.4% | -2.7% |
| 54 | CC(C)[C@H](NC(=O)OC(C)(C)C)c1cc(C(=O)NC2CC2)c(N)s1 | 3.4% | -8.5% |
| 55 | Cc1noc(C)c1S(=O)(=O)N(C)C[C@H]1OCCCC[C@@H](C)Oc2ccc(NC(=O)CCCN(C)C)cc2C(=O)N([C@H](C)CO)C[C@@H]1C | 3.2% | -9.4% |
| 56 | CCCC(=O)N1CCCC(c2cc(C(=O)Nc3ccc4c(c3)OCO4)no2)C1 (stereo not drawn) | 13.6% | 6.1% |
| 57 | COc1ccccc1C(=O)Nc1nnc([C@@H]2C[C@H](O)[C@@H](CO)O2)s1 | 21.2% | 1.9% |
| 58 | COc1ccc(S(=O)(=O)N(C)C)cc1NC(=O)C1CCN(c2ncnc3sc(C)c(C)c23)CC1 | 5.4% | ? |
| 59 | CCCc1ccc(C(O)c2ncc(-c3cccc(OC)c3)[nH]2)cc1 (stereo not drawn) | -21.9%[18.4 µM] | 10.6% |
| 60 | C[C@@H]1CN([C@@H](C)CO)C(=O)CCCn2cc(nn2)CO[C@H]1CN(C)S(=O)(=O)c1cccc(F)c1 | -3.7% | -22.4% |
| 61 | CCOc1cccc(-c2cc(NCCc3ccccn3)n3nccc3n2)c1 | 10.2% | -13.3% |
| 62 | O=C(NCc1ccccc1)C(CCc1ccccc1)n1c(=O)c(-c2ccccc2)nc2ccccc21 (stereo not drawn) | 11.7% | 4.2% |
| 63 | CCOC(=O)[C@]12Cc3cc(OC)ccc3[C@H]1N(C(C)C)C(=O)c1ccccc12 | 1.9% | 31.6µM* |
| 64 | CC1(C(=O)NS(=O)(=O)c2ccc(Cl)s2)CCN1C(=O)C1(c2ccc(Cl)cc2)CC1 (stereo not drawn) | 31.4%[18.4 µM] | 56.9%[activator] |
| 65 | COCCNC(=O)C1(C)CCCN(C(=O)c2cccc(OC(F)(F)F)c2)C1 (stereo not drawn) | 20.4% | -7.2% |
| 66 | CCCCCC(=O)N1C[C@@H](n2cc(-c3ccc(F)cc3)nn2)[C@H](O)C[C@@H]1c1ccccc1 | 0.5% | -0.9% |
| 67 | O=C(NC(c1ccccc1)c1cnccn1)C1CCN(CCOc2ccc(Cl)cc2Cl)CC1 (stereo not drawn) | -15.8% | -10.5% |
| 68 | CC(=O)OC[C@@H]1CN(Cc2ccccc2)C[C@H](n2ccc3c(N)ncnc32)O1 | 5.3% | -28.0% |
| 69 | C=CCN1C=C(C(=O)c2ccccc2)C(=O)CC1 | -9.0% | -4.8% |
| 70 | CCOC(=O)C1=CC[C@@H](c2ccccc2)N(S(=O)(=O)c2ccc(C)cc2)[C@H]1C#N | 8.2% | -0.1% |
| 71 | COC(=O)CCCn1cc(CN2CC(N3CCCCC3)CS2(=O)=O)nn1 (stereo not drawn) | 2.4% | -17.9% |
| 72 | COC(=O)C1=C(O)/C(=C/c2ccc(OCC(=O)Nc3ccc(OC)cc3)cc2)N=C1C | 5.5% | -7.2% |
| 73 | Cc1cccc(S(=O)(=O)NC(=O)C2(C)CCN2C(=O)C2(c3ccc(Cl)cc3)CCC2)c1 (stereo not drawn) | 2.6% | 12.5% |
| 74 | CC1=C(C(=O)N(C(C)C)C(C)C)CC(CC(=O)NCCc2ccccn2)C(=O)N1CCCN1CCCC1=O (stereo not drawn) | -3.1% | -8.3% |
| 75 | CN(CC(=O)Nc1ccc(Cl)c(C(F)(F)F)c1)S(=O)(=O)c1cnc[nH]1 | -3.5% | -7.4% |
| 76 | COC(=O)[C@]12CCCCC=C1N(Cc1ccco1)C(=O)[C@H](CC(=O)N1CCSCC1)C2 | 1.6% | -8.7% |
| 77 | CC1=C(C(=O)N(C(C)C)C(C)C)CC(CC(=O)NC2CC2)C(=O)N1Cc1ccc(C(C)(C)C)cc1 (stereo not drawn) | 16.6% | -9.9% |
| 78 | CC(C)CC(N)c1csc(Nc2cc(Oc3ccccc3)ncn2)n1 (stereo not drawn) | -6.9% | -22.4% |
| 79 | O=C(c1cccs1)N1C[C@@H](O)[C@H](n2cc(C3CC3)nn2)C[C@@H]1c1ccccc1 | -16.4% | 0.0% |
| 80 | COc1ccc(-c2nc3ccc(Cl)cn3c2Cc2cccc(F)c2)cc1OC | -1.8% | -9.2% |
| 81 | CC1(C)CC(Cc2ccccc2C(F)(F)F)N(C(=O)OC(C)(C)C)C1 (stereo not drawn) | 12.6% | -16.4% |
| 82 | C[C@H](CO)N1C[C@H](C)[C@H](CN(C)Cc2ccc(C(=O)O)cc2)OCc2ccccc2-c2c(n(C)c3ccccc23)C1=O | 34.9% | ? |
| 83 | COc1ccc(C(=O)NC(=S)NNC(=O)c2ccc(C)cc2)cc1 | -7.2% | -4.1% |
| 84 | Cn1cc(C=CC(=O)O)c2nccnc21 | 3.1% | -8.5% |
| 85 | CC1(C2CCC3(C)OC3C2)CO1 (stereo not drawn) | -13.4% | -23.1% |
| 86 | CCc1cccc(CC)c1N1C(=O)C2=C(SCCCS2)C1=O | -11.3% | ? |
| 87 | CC1(C)N=C(N)N=C(N)N1c1ccc(OCC(=O)N2CCOCC2)cc1 | -19.3% | 5.6% |
| 88 | CC1(C(=O)NS(=O)(=O)c2ccc(F)cc2F)CCN1C(=O)C/C=C/c1ccccc1 (stereo not drawn) | -2.9% | -19.2% |
| 89 | CCCCNC(=O)c1nc(-c2cnccn2)oc1-c1ccc(Cl)cc1 | -7.7% | -17.6% |
| 90 | O=C(Nc1ccc(N2CCOCC2)cc1)c1csc(COCCO)n1 | -28.0% | 9.9% |
